Compound activity: PubChem, ICCB-Longwood Screening Facility, Harvard Medical School
GIV-Gai inh: inhibitors of GIV peptide binding to Galpha-i3, primary screen, biochemical, fluorescence polarization, FITC-GIV GBA peptide, rat Galphai3; percent of control (FP), % (no concentration beside the values); Guanine nucleotide-binding protein G(i) subunit alpha-3 (Rattus norvegicus), P08753; 210,000 compounds, 0.42% hits; 90 min; active compounds read low; scaled: aluminum fluoride 0%, vehicle 100%;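 active means replicate mean at 85% of control or lower, very high polarization wells dropped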;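 further: wells of about 15 µL received 100 nL stock; the first replicate is given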
Target sequence (P08753 whole entry, looked up): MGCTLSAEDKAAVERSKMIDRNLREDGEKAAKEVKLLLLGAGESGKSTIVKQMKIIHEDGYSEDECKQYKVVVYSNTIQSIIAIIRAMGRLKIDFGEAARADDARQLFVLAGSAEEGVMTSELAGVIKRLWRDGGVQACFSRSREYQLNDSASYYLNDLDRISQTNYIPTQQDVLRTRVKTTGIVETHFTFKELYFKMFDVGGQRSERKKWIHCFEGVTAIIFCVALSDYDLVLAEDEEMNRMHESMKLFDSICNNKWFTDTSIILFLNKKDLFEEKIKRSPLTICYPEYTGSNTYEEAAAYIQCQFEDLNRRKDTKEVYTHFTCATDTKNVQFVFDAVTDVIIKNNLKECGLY
Sa growth inh: S. aureus growth inhibition at 42 and 30 °C, primary screen, LtaS inhibitor project, RN4220, two temperatures | OD600, 20 h, 42 °C; active compounds read low | AID 720641, 2013 | 170,000 compounds, 0.53% hits | relative growth, % (test concentration not listed);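 active means growth at 42 °C up to 50% and 20 or more points under that at 30 °C, or under 10% at both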;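 further: 300 nL library stock went into each well; scaled to the means of positive and negative controls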
HCMV UL50-53 inh: inhibitors of HCMV UL50-UL53 interaction, biochemical, HTRF | inhibition, % (no concentration beside the values) | normalized percent inhibition | HCMV UL50-UL53 nuclear egress complex (human cytomegalovirus) | 190,000 compounds, 0.15% hits;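 active means both replicates at 50% or more, plus weaker picks with an unusually low signal ratio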;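 further: stock transfer was 100 nL into about 20 µL; 0% = negative control wells and 100% = wells with untagged competitor protein; inactives centre near -12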
Sa growth inh second temp: further read-out of Sa growth inh, marked with its call; relative growth, %; measured here: growth at 30 °C;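 optical density after 20 h as mean of two plates; 100% = untreated growth and lower means inhibition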
Starred values were filed as active, the others as inactive; . = no result given.

Keys – A = GIV-Gai inh; B = Sa growth inh; C = Sa growth inh second temp; D = HCMV UL50-53 inh
> CCOC(=O)c1cc(S(=O)(=O)N2CCC(Cc3ccccc3)CC2)cn1C
  A: 102 | B: . | C: . | D: -14

> COc1cccc(Nc2c3c(nc4nncn24)CCC3)c1
  A: 100 | B: 100 | C: 80 | D: -21

> CCS(=O)(=O)c1nc(S(=O)(=O)c2ccc(C)cc2)c(NC)s1
  A: 103 | B: 99 | C: 81 | D: -12

> C=CCn1c(N)cc(=O)nc1SC(C)C(=O)Nc1ccccc1 (stereo not given)
  A: 101 | B: 102 | C: 101 | D: .

> OC(CN1CCN(c2ccccc2)CC1)c1ccc2c(c1)CCN2 (stereo not given)
  A: 104 | B: 109 | C: 91 | D: 0

> Cc1ccc(C)c(-c2nn(CC(=O)Nc3cc(F)ccc3F)c(=O)c3c2CCCC3)c1
  A: 98 | B: 103 | C: 83 | D: -30

> CCOC(=O)CN1C(=O)S/C(=C\c2ccc(-c3ccc(Cl)cc3Cl)o2)C1=O
  A: . | B: 90 | C: 87 | D: -25

> COc1ccc2cc(C=NCc3ccc(C)cc3)c(N3CCCCC3)nc2c1
  A: 103 | B: 101 | C: 81 | D: .

> COC(=O)C1CCN(C(=O)/C=C/c2ccccc2)CC1
  A: . | B: 93 | C: 94 | D: -30

> CN(C)CCNC(=O)c1ccc2c(c1)N(Cc1ccccc1)CCS2
  A: 97 | B: 99 | C: 93 | D: -1

> N#Cc1ccc(C(=O)Nc2ccn(-c3ccccc3)n2)cc1
  A: . | B: 96 | C: 69 | D: -33

> CC(C)n1nnc2cc(C(=O)Nc3ccc(S(N)(=O)=O)cc3)ccc21
  A: 100 | B: . | C: . | D: -4

> O=S(=O)(c1ccc(Cl)cc1)N(Cc1ccccc1)Cc1ccco1
  A: . | B: 79 | C: 76 | D: -31

> Cc1ccc(Nc2c(-c3ccc(N(C)C)cc3)nc3nc[nH]n23)cc1
  A: 110 | B: 93 | C: 95 | D: -21

> O=C(CSc1nc2c(c(=O)[nH]1)CN(Cc1ccc3c(c1)OCO3)CC2)Nc1ccc(F)c(F)c1
  A: 108 | B: 117 | C: 87 | D: 5

> Cn1c(=O)n(C)c2cc(Oc3ccccc3)c(NC(=O)NC3CCCCC3)cc21
  A: 109 | B: . | C: . | D: -9

> COc1ccc(N2CCN(C(=O)CCNS(=O)(=O)c3ccc4c(c3)CCN4C(=O)C3CC3)CC2)cc1
  A: 104 | B: 93 | C: 92 | D: .

> COc1ccc(NC(=O)CSc2nc3c(c(=O)[nH]2)CN(Cc2ccccc2)CC3)cc1Cl
  A: 105 | B: 95 | C: 87 | D: -15

> FC(F)(F)c1ccc(N2CCCN(C(=S)Nc3cccnc3)CC2)nc1
  A: 105 | B: 105 | C: 98 | D: 2

> Cc1cc(NC(=O)CC2CCCC2)n(-c2ncnc3c2cnn3-c2cccc(Cl)c2)n1
  A: 102 | B: . | C: . | D: -19

> CC(C)n1c(=O)[nH]c2nc(N3CCCCC3)sc2c1=O
  A: 111 | B: . | C: . | D: -8

> O=C(C1CCCCC1)N(c1ccc2oc3c(c2c1)CCCC3)S(=O)(=O)c1cccs1
  A: 101 | B: 127 | C: 84 | D: .

> Cc1cc(=O)n2c(C(=O)Nc3ccc(F)c(Cl)c3)c(C(=O)Nc3cccc(C)c3C)sc2n1
  A: 98 | B: 97 | C: 83 | D: -6

> Cc1cccc(NC(=O)c2cnc3ccc(C)cn3c2=O)c1
  A: 101 | B: . | C: . | D: -29

> C=CCNc1ncnc2c1c(-c1ccccc1)cn2-c1cccc(C(F)(F)F)c1
  A: 103 | B: 109 | C: 95 | D: .

Arranged by SMILES length (smallest number first): three of the compounds above.
Keys – A = GIV-Gai inh; B = Sa growth inh; C = Sa growth inh second temp; D = HCMV UL50-53 inh
> N#Cc1ccc(C(=O)Nc2ccn(-c3ccccc3)n2)cc1
  A: . | B: 96 | C: 69 | D: -33

> CCS(=O)(=O)c1nc(S(=O)(=O)c2ccc(C)cc2)c(NC)s1
  A: 103 | B: 99 | C: 81 | D: -12

> CCOC(=O)c1cc(S(=O)(=O)N2CCC(Cc3ccccc3)CC2)cn1C
  A: 102 | B: . | C: . | D: -14

(list continues)
Keys – A = GIV-Gai inh; B = Sa growth inh; C = Sa growth inh second temp; D = HCMV UL50-53 inh
> COc1ccc(N(CC(=O)Nc2ccc(Br)cc2)S(=O)(=O)c2ccc(OC)c(OC)c2)cc1
  A: 110 | B: . | C: . | D: -2

> Cc1cc(C)cc(NS(=O)(=O)c2c(C)nc3sc4cc(C)ccc4n3c2=O)c1
  A: 103 | B: . | C: . | D: -28

> O=C(Cc1c[nH]c2ccccc12)OCC(=O)N1CCCCC1
  A: . | B: 85 | C: 87 | D: -25

> Cc1ccc(S(=O)(=O)Cc2nc(-c3ccc(C(=O)NCc4ccccc4)cc3)oc2C)cc1
  A: 109 | B: 115 | C: 101 | D: .

> O=C(Cn1cnc([N+](=O)[O-])n1)Nc1cc(Oc2cccc(C(F)(F)F)c2)cc([N+](=O)[O-])c1
  A: 97 | B: . | C: . | D: -37

> COc1ccc(N2CC(NC(=O)C3CCCCC3)CC2=O)cc1 (stereo not given)
  A: 98 | B: 101 | C: 90 | D: .

> CCCCC12CN3CC(C)(CN(C1)C3c1ccc(O)c(OC)c1)C2=O (stereo not given)
  A: 103 | B: 83 | C: 89 | D: -21

> Cc1ccc(OCC(O)CNCc2ccc(F)cc2)cc1 (stereo not given)
  A: . | B: 76 | C: 92 | D: -14

> O=C1C(c2ccccc2)=C(c2ccccc2)C(=O)N1O
  A: 102 | B: 83 | C: 111 | D: 9

> Cc1ccc(S(=O)(=O)Nc2nc(O)c(C3=c4ccccc4=NC3=O)s2)cc1
  A: 98 | B: 110 | C: 94 | D: -13

> Cc1ccc2ccccc2n1
  A: . | B: 106 | C: 96 | D: -4

> Cc1c(Cl)sn(-c2ccc(Cl)cc2)c1=O
  A: 101 | B: -1.2* | C: -0.3* | D: -25

> Cc1c(CNCCc2cccs2)c(C(=O)O)c(C)n1Cc1c(F)cccc1Cl
  A: 99 | B: 96 | C: 85 | D: .

> COc1cccc(NC(=O)C2CCN(S(=O)(=O)c3ccc4c(c3)CCCC(=O)N4)CC2)c1
  A: 109 | B: . | C: . | D: -13

> Cc1cccc(-n2ncc(C(=O)NC3CC3)c2-n2cccc2)c1
  A: 100 | B: 102 | C: 102 | D: 14

> N#CCSc1nc2c(sc3ccccc32)c(=O)n1CCO
  A: 102 | B: 118 | C: 91 | D: 8

> CC1Cc2ccccc2N1C(=O)c1ccc(=O)n(CCC(=O)N2CCc3ccccc32)n1 (stereo not given)
  A: 103 | B: . | C: . | D: -24

> CCNC(=O)CC1C(=O)N(c2ccc(C)cc2)C(=O)N1Cc1ccc(C)cc1 (stereo not given)
  A: 97 | B: 90 | C: 99 | D: -2

> CCOC(=O)c1c(NC(C)=O)c2c3c(sc2n1Cc1nc(-c2ccccc2C)oc1C)CCCC3
  A: 103 | B: 123 | C: 97 | D: .

> CCCOc1ccc(Oc2nc(N(C)C)nc(N3CCCC3)n2)nn1
  A: 104 | B: 107 | C: 92 | D: 10

> COc1ccc(CCNC(=O)C(C#N)c2nc3ccccc3nc2N2CC(C)OC(C)C2)cc1OC (stereo not given)
  A: . | B: 95 | C: 98 | D: 7

> CCOc1ccc(C(=O)c2cn(CC(=O)Nc3ccc(Cl)cc3)c3cc4c(cc3c2=O)OCCO4)cc1
  A: 112 | B: 97 | C: 80 | D: 21

> Cc1cc(C)c2c(n1)SCCN2C(=O)Nc1ccc(Cl)cc1
  A: 105 | B: . | C: . | D: -9

> COc1cc2c(C(=O)N3CCN(c4cccc(Cl)c4)CC3)cn(C)c(=O)c2cc1OC
  A: 104 | B: 91 | C: 90 | D: -30

> N#CCc1nc2ccc(F)cc2c(=O)[nH]1
  A: . | B: 98 | C: 92 | D: 12

> O=C(Cn1cc(Br)ccc1=O)c1ccc2c(c1)OCCO2
  A: . | B: 64 | C: 77 | D: -13

> COC(=O)c1ccc(Cl)cc1NC(=O)N1CCC(CN2CCCC2)CC1
  A: 99 | B: 123 | C: 90 | D: .

> CC(=O)Nc1ccc(Br)c(C(F)(F)F)c1
  A: 103 | B: 96 | C: 77 | D: -13

> Cc1ccc2[nH]c(=O)c(CN(C(=O)c3cccc(Cl)c3)C(C)(C)C)cc2c1
  A: 110 | B: 100 | C: 94 | D: 6

> CCOc1cccc(C2c3[nH]c4ccccc4c3CCN2C(=O)CSc2ccccc2)c1 (stereo not given)
  A: 103 | B: 86 | C: 96 | D: .

> Cc1ccc(N(Cc2nc3nc(C)cc(C)n3n2)C(=O)c2ccccc2C)cc1
  A: 97 | B: . | C: . | D: -23

> N#CCCN(Cc1ccccc1)C(=O)Nc1ccc2c(c1)CCO2
  A: 102 | B: 95 | C: 93 | D: -10

> O=C(c1ccncc1)c1nccn1-c1ccccn1
  A: . | B: 102 | C: 87 | D: -60

> CCOc1ncccc1C(=O)N1CCSC1=NCCc1ccccc1
  A: . | B: 96 | C: 94 | D: -26

> CCc1nn(CCCC(=O)N(C)Cc2ccccc2)c(=O)c2cc3occc3n12
  A: 97 | B: 86 | C: 75 | D: .

> O=C(O)CNC(=O)/C=C/c1cccc(C(F)(F)F)c1
  A: 102 | B: 109 | C: 88 | D: .

> CSc1ncc(C(=O)O)c(-c2ccccc2)n1
  A: 99 | B: 91 | C: 72 | D: .

> CCN1C(=O)c2ccc(C(=O)c3ccc(C(=O)O)cc3)cc2C1=O
  A: 100 | B: 93 | C: 85 | D: -165

> COc1ccc(CNC(=O)CCc2nnc3n(CC(C)C)c(=O)c4ccccc4n23)cc1
  A: 102 | B: 106 | C: 85 | D: -30

> COc1ccc(N2CC(c3ccc(F)cc3)=CC2=O)cc1
  A: 106 | B: . | C: . | D: -28

> Cc1cccc(NC(=O)CC23CC4CC(C2)CC(n2nnc(C)n2)(C4)C3)c1
  A: 100 | B: 103 | C: 96 | D: -4

> Cc1ccc(NC(=O)C2=NS(=O)(=O)c3ccc(C)cc3N2)cc1
  A: 99 | B: . | C: . | D: -18

> COC(=O)C1CCN(S(=O)(=O)c2ccc(N3CCCCS3(=O)=O)cc2)CC1
  A: 97 | B: 87 | C: 90 | D: .

> CCN1C(=O)/C(=C/c2ccccc2)N(C)C1=S
  A: 101 | B: 114 | C: 76 | D: -43

> COc1ccc(N2CCN(C(=O)COC(=O)C3CC4CCCC(C3)C4=O)CC2)cc1 (stereo not given)
  A: . | B: 96 | C: 86 | D: -32

> COc1nc(N(C)C)nc(N(CN2C(=O)c3ccccc3C2=O)S(=O)(=O)c2ccc(C)cc2)n1
  A: 95 | B: 106 | C: 76 | D: -20

> O=C1C2C3C=CC(C3)C2C(=O)N1c1ccncc1 (stereo not given)
  A: 99 | B: 96 | C: 93 | D: -16

> CCC(=O)Nc1cc2c(C)cc(=O)oc2cc1C
  A: 100 | B: 116 | C: 81 | D: .

> COc1ccc(-n2nc(C(=O)NCC(=O)N3CCCCC3)c3ccccc3c2=O)cc1
  A: 104 | B: 99 | C: 92 | D: -3

> CCCOc1cccc(C(=O)Nc2cccc(NC(=O)c3ccc(Cl)cc3Cl)c2)c1
  A: 100 | B: 90 | C: 88 | D: -53

Additional results:
Keys – A = GIV-Gai inh; B = Sa growth inh; C = Sa growth inh second temp; D = HCMV UL50-53 inh
> CC(Nc1ccccc1)C(=O)O (stereo not given)
  A: . | B: 70 | C: 68 | D: -9

> COC(=O)c1ccccc1NC(=O)c1ccc(COc2ccccc2Cl)o1
  A: 103 | B: 98 | C: 84 | D: -30

> CC(=O)Nc1ccc(SC(C)c2nc3ccccc3c(=O)[nH]2)cc1 (stereo not given)
  A: . | B: 92 | C: 91 | D: -3

> CCN(CC)c1ccc(/C=C2/C(=O)NN(c3ccc(C)cc3)C2=O)cc1
  A: 109 | B: 119 | C: 93 | D: .

> COC(=O)c1sc2cc(OC)ccc2c1Cl
  A: 107 | B: 102 | C: 101 | D: -2

> COC(=O)c1ccc(-c2ccco2)n1CC(=O)N1CCC(Cc2ccccc2)CC1
  A: 98 | B: 90 | C: 81 | D: 5

> CC(=O)N(Cc1ccccc1)Cc1cc2ccc(C)cc2[nH]c1=O
  A: 107 | B: 102 | C: 98 | D: -20

> Cc1cc(C)nc(NS(=O)(=O)c2ccc(NC(=O)CN3C(=O)c4ccccc4C3=O)cc2)n1
  A: 97 | B: . | C: . | D: -4

> CC(=O)N1CC2(NC(=O)c3ccccc3N2)c2ccccc21 (stereo not given)
  A: 104 | B: 85 | C: 90 | D: .

> O=S(=O)(c1ccccc1F)N(Cc1ccco1)Cc1nnc(-c2ccc(Cl)cc2)o1
  A: . | B: 107 | C: 95 | D: -15

> O=C(NCC(=O)N1CCN(S(=O)(=O)/C=C/c2ccccc2)CC1)c1ccccc1F
  A: . | B: 94 | C: 95 | D: -14

> O=C(O)CSc1nc(O)cc(=O)[nH]1
  A: 95 | B: 91 | C: 90 | D: -1

> CCOC(=O)N1CCN(C(=O)CN(c2ccc(Cl)cc2C)S(=O)(=O)c2ccc(C)cc2)CC1
  A: 101 | B: . | C: . | D: 2
